# Screening data from PubChem.
# CDC25B CDK2 inh: human CDC25B-CDK2/CyclinA binding inhibition; HTRF CDC25B-CDK2/CyclinA binding, anti-His/anti-Flag; stronger effect = higher value; z-score (test concentration not listed); AID 1259370; P30305+P24941; hit rate 0.72% among 94,000;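 also: score is relative to mean and SD of negative controls; strong numbers were not always called active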
# HIV TAR-Tat: HIV-1 TAR-Tat binding disruption; hit rate 0.6% among 100,000; AID 1259389; z-score (test concentration not listed); HIV-1 TAR RNA, Tat peptide displacement FRET; stronger effect = higher value;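 also: score is relative to mean and SD of negative controls; some compounds called inactive have numbers as strong as hits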
# * marks the source's active call; other numbers are inactive results; . = no result given.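 The calls were made as follows: active = z-score from 3 up in half or more of its runs; inactive = the rest.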 No enrichment for hits; overall some 0.89% were active at least once.
smiles	CDC25B CDK2 inh	HIV TAR-Tat
CC(NS(=O)(=O)c1ccc(Br)cc1)C(c1cccs1)N1CCOCC1 (stereo not drawn)	-1	.
CCCCNC(=O)CCc1c(C)nn2cnnc2c1C	.	0.97
C=CCNC(=O)c1ccc(NC2=NC3CS(=O)(=O)CC3S2)cc1 (stereo not drawn)	.	-0.38
CCCN1CCN(C(=O)C2Cc3ccccc3N2C(C)=O)CC1 (stereo not drawn)	.	0.84
COc1ccc(C2C(C(=O)c3ccco3)=C(O)C(=O)N2CCCn2ccnc2)c(OC)c1 (stereo not drawn)	-1.8	0.3
O=C(c1ccc2c(=O)n3c(nc2c1)CCCC3)N1CCN(C(=O)c2ccco2)CC1	.	1.7
Cc1cc(C)c(/C=N/NC(=O)c2cccnc2)[nH]1	-3.4	.
Cc1ccc(S(=O)(=O)Nc2cccc(-c3cn4ccccc4n3)c2)c(C)c1	-1.1	.

smiles	CDC25B CDK2 inh	HIV TAR-Tat
COc1cccc(C2Nc3c(C)cc(C)cc3-c3cc(C)nn32)c1O (stereo not drawn)	-1.1	2.4
Cc1[nH]c2ccccc2c1C(c1ccccn1)N1CCN(Cc2ccccc2)CC1 (stereo not drawn)	-1.7	.
CC(C)CCNC(=O)Nc1cn(CC(C)C)c(=O)c2ccccc12	.	0.72
Cc1cc(C)c(C#N)c(SCCC(=O)Nc2nc(-c3ccccc3)ns2)n1	0.84	1.2
COc1ccc(S(=O)(=O)N2CCCC2c2cc(C)no2)cc1OC (stereo not drawn)	.	1.8
O=C(O)CSc1nnc(COc2cccc(Br)c2)n1Cc1ccccc1	-1.6	0.14
O=C(Cc1cccs1)Nc1c(C(=O)N2CCN(c3ccccc3F)CC2)oc2ccccc12	.	-3.4
O=C1N(Cc2ccccc2Cl)c2ccccc2S(=O)(=O)N1Cc1ccccc1	.	1.6

smiles	CDC25B CDK2 inh	HIV TAR-Tat
Cn1cnc(S(=O)(=O)N2CCN(c3ccc(N4CCOCC4)nn3)CC2)c1	.	0.8
CN(C)c1ccncc1C(O)C(F)(F)F (stereo not drawn)	-0.97	.
Cc1[nH]c2ccc(C(=O)N3CCCC3)cc2c1C	.	1.1
O=C(CN1CCN(S(=O)(=O)c2ccc(Br)cc2)CC1)Nc1ccc2c(c1)OCO2	.	2.2
Cc1ccc(CNCCCSc2nnnn2C)cc1	-1.2	-0.05
O=C(c1ccco1)N1CCN(C(=O)C2CCN(c3nnc(N4CCCC4=O)s3)CC2)CC1	.	1.9
Cc1ccc(S(=O)(=O)N(CCS(=O)(=O)N2CCNCC2)C2CCCC2)cc1	.	1.2
CN1C(=O)c2cc(C(=O)NCc3cccs3)nn2CC1(C)C(=O)NC1CCCCC1 (stereo not drawn)	.	0.89

smiles	CDC25B CDK2 inh	HIV TAR-Tat
O=C(NC1CCCC1)C1CC(c2c(F)cccc2Cl)=NO1 (stereo not drawn)	-0.78	0.45
CCN(CC)CCN(C(C)=O)c1nc2c(Cl)cccc2s1	.	2.1
COC(=O)c1cc(S(=O)(=O)N(C)CC2COc3ccccc3O2)cn1C (stereo not drawn)	.	0.63
Cc1nn(C(C)C(=O)NC2CCCCC2)c2ccccc12 (stereo not drawn)	-0.49	2.1
Cc1nc2ccc(CN(C)c3ccc(C(=O)N[C@@H](CCC(=O)O)C(=O)O)s3)cc2c(=O)[nH]1	.	-1.9
Cc1cc(NC(=O)CSc2nc3ccsc3c(=O)n2Cc2ccco2)no1	.	2.3
Cc1nn(-c2nc3ccccc3s2)c2c1C(c1ccc(F)c(Br)c1)CC(=O)N2 (stereo not drawn)	.	23
CSc1cccc(NC(=O)N2c3ccccc3NC3=C(C(=O)CCC3)C2c2cccs2)c1 (stereo not drawn)	.	1.7

smiles	CDC25B CDK2 inh	HIV TAR-Tat
Cc1oc(-c2ccccc2Cl)nc1CSc1nnc(C)n2c1cc1occc12	.	-7
CC1=C(C(=O)Nc2ccc(F)cc2F)C2(CCN(C(C)C)CC2)OC1=O	.	0.89
Cc1cccc(OCc2cc(=O)n3nc(C)sc3n2)c1	-2.3	3.1
O/N=C(/c1ccccn1)C1CCCCC1	0.18	.
CCc1nnc(NC(=O)c2sc3nc4c(cc3c2N)CCC4)s1	-0.17	1.2
CC1(C)CC(=O)c2sc3nc(-c4ccc(Br)cc4)cn3c2C1	-2.2	-0.11
COc1cc(/C=C2/SC(=S)N(CCC(=O)Nc3ccc(C)cc3)C2=O)cc(OC)c1OC	-3.9	.
Cc1nc(C)c(-c2ccc(SCC(=O)Nc3nccs3)nn2)s1	.	0.51

smiles	CDC25B CDK2 inh	HIV TAR-Tat
COc1ccc(CCNC(=O)C2CCC(Cn3c(=S)[nH]c4ccsc4c3=O)CC2)cc1OC (stereo not drawn)	-7.7	.
CCCc1nc2c3ccccc3nc(NCc3ccccc3)n2n1	-0.91	0.62
Cc1ccc(CSc2nnc(Cc3ccsc3)n2C)cc1	-1.7	.
Cc1ccccc1-c1nnc2n1N=C(c1ccc(Cl)cc1)CS2	.	-0.81
CCOC(=O)COc1ccc2c3c(c(=O)oc2c1)CCCC3	-1.4	.
CN(CCCNc1ncnc2onc(-c3ccc(F)cc3)c12)Cc1ccccc1	.	-0.45
CC(=O)N1CCOc2ccc(S(=O)(=O)N(C)CC(=O)NC3CCCC3)cc21	.	2.2
NC1(C(=O)O)CC1	-0.03	1.6

# Reformatted: 2 of the compounds above
# Every second line gives: CDC25B CDK2 inh	HIV TAR-Tat
> CN(CCCNc1ncnc2onc(-c3ccc(F)cc3)c12)Cc1ccccc1
 : .	-0.45
> CC(=O)N1CCOc2ccc(S(=O)(=O)N(C)CC(=O)NC3CCCC3)cc21
 : .	2.2

# Other results
smiles	CDC25B CDK2 inh	HIV TAR-Tat
CCCc1nc(N)c(C#N)c(-c2ccccc2)c1CC	-2.6	0.49
CCC(=O)N1CCc2cc(S(=O)(=O)NC(C(=O)NCc3cccs3)C(C)C)ccc21 (stereo not drawn)	-2.4	.
CCN1CCN(S(=O)(=O)c2ccc(-c3n[nH]c(C)c3C)s2)CC1	.	-1.2
O=C1C(=O)N(CN2CCc3c([nH]c4ccccc34)C2C(F)(F)F)c2ccc(F)cc21 (stereo not drawn)	-0.61	.
CN(C)CCCNc1ncnc2c1c(-c1ccccc1)cn2-c1ccc(F)cc1	.	3.5
Nc1c(-c2n[nH]c(=S)n2-c2ccc(Cl)cc2Cl)cnn1-c1ccccc1	-0.89	.
CCOc1cc(C2C(C(=O)OCC(C)C)=C(C)NC3=C2C(=O)CC(c2cccs2)C3)ccc1O (stereo not drawn)	-2.3	2.9
O=S(=O)(CS(=O)(=O)NCc1cccs1)NCc1cccs1	3.1	.

smiles	CDC25B CDK2 inh	HIV TAR-Tat
Cn1cnc2c(=O)oc3ccc(S(=O)(=O)N4CCN(C5CCCCC5)CC4)cc3c21	1.1	0.9
CCC(C)(C)c1nnc(NC(=O)C2CC(=O)N(CCc3c[nH]c4ccc(Cl)cc34)C2)s1 (stereo not drawn)	-1.5	1.6
Cc1ccc(C(=O)Nc2nc(-c3ccc(Br)o3)ns2)cc1	-1.2	0.81
Cc1nn(C(C)C(=O)NCc2ccc(F)cc2)c(=O)c2cc3occc3n12 (stereo not drawn)	-0.21	0.7
Cc1nc(-c2nc(-c3ccnc(SCC(=O)Nc4ccc(Cl)cc4)n3)cs2)cs1	-1	.
Cc1nn(C(C)C(=O)O)c(=O)c2nn(-c3ccccc3)c(C)c12 (stereo not drawn)	-0.39	1.6
CCOC(=O)CN/C(SC)=C(/C#N)C(=O)c1cccs1	-2.2	.
COc1ccc(OCC(=O)Nc2cc(N3CCCS3(=O)=O)ccc2OC)cc1	.	-0.41

smiles	CDC25B CDK2 inh	HIV TAR-Tat
Cc1cc(C)c2oc(C(=O)N(Cc3cccc(Cl)c3)C3CCS(=O)(=O)C3)cc(=O)c2c1 (stereo not drawn)	-0.24	1.8
CC1(C)CC(=O)C2=C(C1)NC(=O)CC2c1ccccc1F (stereo not drawn)	0.88	1.8
Cc1cccc(C)c1N1C(=O)C2C3C=CC(C4CC34)C2C1=O (stereo not drawn)	0.42	.
CC(=O)N1c2ccccc2CC1C(=O)NCc1ccc(C)o1 (stereo not drawn)	.	1.9
CN1CC(O)C(O)C(O)C1CO (stereo not drawn)	-1.9	.
Cc1nc2sccn2c1-c1csc(Nc2ccc(Br)cc2)n1	-1.4	-0.83
CCC(C(=O)N1CCN(c2ccccn2)CC1)n1nc(C)c2sc3ccccc3c2c1=O (stereo not drawn)	-0.11	1.7
COc1cccc(-c2n[nH]c(=S)n2-c2ccccc2)c1OC	1.2	.

smiles	CDC25B CDK2 inh	HIV TAR-Tat
CC1CC(C)CN(S(=O)(=O)c2ccc3c(c2)NC(=O)C(C)C(=O)N3)C1 (stereo not drawn)	-2.6	0.57
CC(C)(C)OC(=O)n1ccc2cc(Br)ccc21	0.71	.
CCOC(=O)C1=C(C)N=C2SCC(=O)N2C1c1ccc(OC)c(OCC)c1 (stereo not drawn)	-5.4	-0.81
O=C(Nc1ccc(S(=O)(=O)Nc2nccs2)cc1)c1cnc2sccn2c1=O	-1.8	.
CC(C)NC(=O)CSc1cn(CC(=O)N2CC(C)OC(C)C2)c2ccccc12 (stereo not drawn)	.	-0.6
CC1CCN(C(=O)CSc2nc(-c3ccccc3)nc3cc(=O)[nH]n23)CC1	.	2.3
CCn1cc(C2=NOC(C(=O)NC3CCCCC3)C2)c(C)n1 (stereo not drawn)	-1.7	-0.62
O=C(O)CCC(=O)Nc1nc2n(n1)C(c1ccccc1)C=C(c1ccc(Cl)cc1)N2 (stereo not drawn)	-0.44	-0.65

smiles	CDC25B CDK2 inh	HIV TAR-Tat
COc1cc(NC(=O)c2nn(C)c3c2CCc2sccc2-3)cc(OC)c1	.	-0.05
O=C(C1=Cc2sc3c(c2CS1)CCCC3)N1CCc2ccccc21	.	0.17
CCN1CCN(c2nc(N3CCN(C(=O)c4ccco4)CC3)nc3c2cnn3C)CC1	.	1.7
Cc1cc(-c2ccc(S(=O)(=O)Nc3cccnc3)s2)on1	.	0.41
Cc1ccc(-c2nnc3ccc(SCC(=O)NCC4CCCO4)nn23)cc1 (stereo not drawn)	-1.4	.
O=C1c2cccnc2C(=O)N1Cc1ccc(F)cc1S(=O)(=O)NCc1cccs1	.	-1.1
CC1=C(c2ccc(C)c(C)c2)S(=O)(=O)N=C1N1CC(C)CC(C)C1 (stereo not drawn)	-9	0.05
Cn1nnnc1SCCNCc1cc(Br)ccc1OCc1ccccc1F	-0.91	0.45

smiles	CDC25B CDK2 inh	HIV TAR-Tat
NS(=O)(=O)c1ccc(-n2ncc3c(=O)[nH]c(SCC(=O)Nc4ccc(F)cc4)nc32)cc1	0.77	.
CCCN(CCC)C(=O)Cn1nnc2sc3c(c2c1=O)CCCC3	-1.6	0.47
CSc1cccc(NS(=O)(=O)c2ccc(CN3C(=O)c4cccnc4C3=O)cc2)c1	.	1.1
CCc1nnc(SCC(=O)N(C)C2CCCCC2)c2cc3sc(C)cc3n12	.	2.2
Cc1c(CNCc2ccc3c(c2)OCO3)c(C(=O)O)c(C)n1Cc1ccccc1	-1.5	-1
CCOC(=O)CN1C(=O)C(O)(CC(=O)c2ccc(C(C)(C)C)cc2)c2ccccc21 (stereo not drawn)	-0.95	0.57
O=c1c(O)c(N2CCc3ccccc3C2)c1=O	.	-1.1
CCN(CC)C(=O)CCn1c(=O)oc2ccccc21	-1.9	.

# Three entries from above, with two lines to a compound.
# Every second line gives: CDC25B CDK2 inh, HIV TAR-Tat
> CCCN(CCC)C(=O)Cn1nnc2sc3c(c2c1=O)CCCC3
→ -1.6, 0.47
> CSc1cccc(NS(=O)(=O)c2ccc(CN3C(=O)c4cccnc4C3=O)cc2)c1
→ ., 1.1
> CCc1nnc(SCC(=O)N(C)C2CCCCC2)c2cc3sc(C)cc3n12
→ ., 2.2

# Sorted by formula weight (low to high): part of the list above.
smiles	CDC25B CDK2 inh	HIV TAR-Tat
O=c1c(O)c(N2CCc3ccccc3C2)c1=O	.	-1.1
CCN(CC)C(=O)CCn1c(=O)oc2ccccc21	-1.9	.
CCCN(CCC)C(=O)Cn1nnc2sc3c(c2c1=O)CCCC3	-1.6	0.47
CCOC(=O)CN1C(=O)C(O)(CC(=O)c2ccc(C(C)(C)C)cc2)c2ccccc21 (stereo not drawn)	-0.95	0.57
CSc1cccc(NS(=O)(=O)c2ccc(CN3C(=O)c4cccnc4C3=O)cc2)c1	.	1.1

# The results go on:
smiles	CDC25B CDK2 inh	HIV TAR-Tat
O=C(c1ccc(-n2ccc3ccccc32)s1)N1CCN(c2ccccn2)CC1	.	0.96
CCn1nc(-c2ccccc2Br)nc2c(=O)n(C)c(=O)nc1-2	12*	0.43
O=C(NCCO)C(=O)NCC(c1ccc2c(c1)OCO2)N1CCOCC1 (stereo not drawn)	.	0.86
CCOC(=O)c1c(C)[nH]c(C)c1S(=O)(=O)N(C)CC(=O)N1c2ccccc2CC1C (stereo not drawn)	.	0.33
CCSCCOC(=O)C1=C(C)NC2=C(C(=O)CC(C)(C)C2)C1c1coc2ccccc2c1=O (stereo not drawn)	-0.44	-0.14
CC(C)c1cccc2c1OC(C(C)C)C(=O)N2 (stereo not drawn)	-2.2	.
Cc1nn2c(=O)cc(CSc3nc4ccc(NC(=O)c5ccco5)cc4s3)nc2s1	.	5.7
N#CNC(=NC1CCCCC1)NC1CCCCC1	-1.9	.

smiles	CDC25B CDK2 inh	HIV TAR-Tat
COc1ccc(Nc2nc(N3CCOCC3)nc3c2cnn3C)cc1Cl	.	0.59
CC1(c2ccc(Cl)cc2)CC(=O)c2cc(O)ccc2O1 (stereo not drawn)	-1.2	-1.6
Cc1cc(C)c(NS(=O)(=O)c2cc3c4c(c2)CCC(=O)N4CCC3)c(C)c1	.	1.1
Cc1cccc2nc(-c3cccnc3)c(Nc3ccccc3)n12	-1.9	.
Cc1ccc(CN2CCCN(Cc3cc(C)ccc3C)S2(=O)=O)cc1	.	-1.1
COc1ccc(C2Nc3cccc4cccc(c34)N2)cc1Br	1.5	26*
C#CC(CC)(CC)Nc1ccsc1C(=O)O	-1.1	.
CCOC(=O)c1sc(-n2[nH]c(C)c(Cc3ccc(C)cc3)c2=O)nc1C	-1.3	-0.39
